# rRNA inh HTS: selective bacterial rRNA inhibition in E. coli; E. coli WT GFP vs humanized-ribosome RFP mutants, fluorescence, 24 h; stronger effect = lower value; DMSO median 0, no signal -100; GFP signal change (wild-type ribosome), % (concentration not given with the values); actives 1.6% (n = 350,000);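 active = significant combined selectivity score with lowered wild-type GFP, culture density cut under 30%, mutant RFP and density less affected; inactive = any of these conditions unmet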; note: one replicate is shown; some compounds called inactive have numbers as strong as hits
# rRNA inh HTS OD600: second read-out of rRNA inh HTS, no call of its own (marks repeat the call); OD600 change, %; measured here: OD600 growth;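 optical density of the mix in the first replicate; 0 = DMSO median and -100 = no signal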
# rRNA inh HTS RFP: also measured in rRNA inh HTS; calls as there; RFP signal change, %; measured here: RFP humanized mutant strains;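 first replicate; 0 = DMSO median and -100 = no signal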
# The depositor's hits bear a star; & = joins results of further samples. An excerpt (hit frequency here may not be typical).
SMILES,rRNA inh HTS,rRNA inh HTS OD600,rRNA inh HTS RFP
CO[C@H]1CN(C)C(=O)c2cc(NC(=O)C3CCCCC3)ccc2OC[C@@H](C)NC[C@H]1C,-0.8,-6.3,-0.1
C=C(C)Cn1c2ccc(NC(=O)NCCc3cccs3)cc2c(=O)n1C,-0.4,9.8,-3.5
COc1ccc(NC(=O)N(C)C[C@H]2Oc3ccc(N(C)C)cc3CC(=O)N([C@@H](C)CO)C[C@@H]2C)cc1,3.0,8.5,0.7
C[C@@H]1CN([C@@H](C)CO)S(=O)(=O)c2ccc(C#CC(C)(C)O)cc2O[C@H]1CN(C)C(=O)C1CC1,-2.0,-4.3,-2.3
CNC[C@@H]1Oc2c(NS(=O)(=O)c3c(C)noc3C)cccc2C(=O)N([C@H](C)CO)C[C@@H]1C,2.3,4.0,-2.2
CO[C@@H]1CN(C)C(=O)c2cc(NS(C)(=O)=O)ccc2OC[C@H](C)N(C(=O)CC2CC2)C[C@@H]1C,2.1,-1.8,-2.0
C[C@@H]1CN([C@@H](C)CO)S(=O)(=O)c2ccc(C#Cc3ccccc3)cc2O[C@H]1CN(C)C(=O)Nc1ccccc1,0.1,3.3,-0.5
C[C@@H]1CN([C@H](C)CO)C(=O)c2cc(-c3cccnc3)cnc2O[C@H]1CN(C)C(=O)C1CCC1,1.8,1.5,-0.8
CNC[C@H]1Oc2cc(C#Cc3ccc(F)cc3)ccc2S(=O)(=O)N([C@H](C)CO)C[C@@H]1C,1.7,-2.2,14.3
COc1ccc(C2CC(=O)C(c3ccc(C(F)(F)F)cc3)=CN2Cc2ccccc2)cc1 (stereo unspecified),11.1,24.2,-1.0
CC(C)NC(=O)N1[C@H](CNC(=O)CN(C)C)[C@@H](c2ccccc2)[C@@H]1CO,2.7,5.4,-3.1
CC(C)NC(=O)Nc1ccc2c(c1)C(=O)N(C)[C@H]1CC[C@@H](CC(=O)NC3CCCCC3)O[C@H]1CO2,-2.8,-4.3,-0.5
C[C@H](CO)N1C[C@H](C)[C@@H](CN(C)S(C)(=O)=O)Oc2ccc(NC(=O)CCCN(C)C)cc2C1=O,4.8,7.6,-1.3
CCC(=O)N1[C@H](CO)[C@H](c2ccc(-c3ccccc3OC)cc2)[C@H]1CNC(C)=O,-0.5,0.2,-2.7
C[C@@H]1CN([C@H](C)CO)C(=O)CCCn2cc(nn2)CO[C@H]1CN(C)S(=O)(=O)c1ccc(Oc2ccccc2)nc1,-1.9,-1.5,-0.5
C[C@H](CO)N1C[C@H](C)[C@H](CN(C)C(=O)CN2CCOCC2)Oc2ncc(-c3cncnc3)cc2C1=O,3.7,8.2,-2.6
CN(C)CC#Cc1ccc([C@@H]2[C@H](CO)N3CCCCN(C(=O)Nc4ccc(F)cc4)C[C@@H]23)cc1,6.1,5.0,5.1
O=C(Nc1ccccc1F)N1CCCCN2[C@H](CO)[C@H](c3ccc(/C=C/c4ccccc4)cc3)[C@@H]2C1,2.0,0.5,7.0
CCS(=O)(=O)N1[C@H](C#N)[C@H](c2ccc(C#CCC3CCCC3)cc2)[C@@H]1CO,-56.7,-70.3,-10.9
COCC(=O)Nc1ccc2c(c1)C(=O)N(C)C[C@H](OC)[C@H](C)CN(C(=O)c1ccccn1)[C@H](C)CO2,4.4,13.4,1.2
COc1cccc(-c2ccc3c(c2)[C@@H]2[C@@H](CCN2C(=O)CN2CCOCC2)[C@@H](CO)N3)c1,3.3,18.7,-6.4
COc1ccc(C#Cc2ccc3c(c2)[C@H]2[C@H](CCN2C(=O)c2ccncc2)[C@H](CO)N3)cc1,-1.0,9.7,-1.2
CCCc1cn(CC[C@@H]2CC[C@H](NS(=O)(=O)c3ccccc3Cl)[C@H](CO)O2)nn1,0.5,0.4,1.3
CC(C)N(C)c1ncnc2c1ncn2[C@H]1CN(Cc2cccs2)C[C@@H](CO)O1,3.6,2.5,0.2
C[C@@H]1CN([C@H](C)CO)C(=O)Cc2cc(NS(=O)(=O)c3ccc(F)cc3)ccc2O[C@H]1CN(C)Cc1ccc(C(=O)Nc2ccccc2N)cc1,-0.4,-2.5,-2.6
Cc1ccccc1-c1ccc(C2[C@H]3CNC[C@@H]2N3S(=O)(=O)c2ccccc2)cc1 (stereo partly specified),-8.1&-56.0,-46.4&-78.1,-1.5&-15.6
CN1C[C@H]2[C@@H](c3ccccc31)[C@@H](CO)N2C(=O)Nc1ccccc1,2.2,3.1,-1.8
C[C@H]1CN([C@@H](C)CO)C(=O)c2cc(NC(=O)Cc3cn(C)c4ccccc34)ccc2O[C@@H]1CN(C)Cc1ccc(C(=O)O)cc1,3.9,-1.3,-1.9
Cc1ccc(S(=O)(=O)N(C)C[C@@H]2Oc3ccc(NC(=O)Cn4cnnn4)cc3C(=O)N([C@H](C)CO)C[C@@H]2C)cc1,0.3,-1.5,-2.7
CCCN(C)C[C@H]1Oc2cc(C#C[C@H](C)O)ccc2S(=O)(=O)N([C@H](C)CO)C[C@H]1C,2.7,0.9,-4.4
C[C@H](NC(=O)[C@@H]1[C@@H](CO)[C@@H]2Cn3c(ccc(-c4ccccc4F)c3=O)[C@H]1N2)c1ccccc1,0.2,4.1,-1.9
COc1cccc(C(=O)N[C@H](C(=O)N2CCC[C@H]2C(=O)NC2CCCC2)C2CCCCC2)c1,18.9,0.6,3.2
C[C@H]1CN([C@@H](C)CO)S(=O)(=O)c2ccc(C3=CCCCC3)cc2O[C@@H]1CN(C)C(=O)Nc1ccc2c(c1)OCO2,2.1,-9.1,11.4
C[C@@H]1CN([C@H](C)CO)C(=O)c2cc(NS(=O)(=O)c3ccc(F)cc3)ccc2O[C@@H]1CN(C)Cc1ccc(C(=O)Nc2ccccc2N)cc1,2.6,3.0,-0.8
Cc1cc(C)n(CCNC(=O)[C@H]2O[C@@H](n3ccc(N)nc3=O)[C@H](O)[C@@H]2O)n1,0.3,10.8,-3.0
CC(C)(C)[S@](=O)N1Cc2cc(C(=O)O)nc(-c3cccc(-c4cccc(F)c4)c3)c2[C@@H]1CCO,1.8,-4.6,1.0
CCC(=O)N1C[C@H]2[C@@H](c3ccccc31)[C@@H](CO)N2CC1CCCC1,-4.8,-4.0,2.6
O=C(NCC[C@H]1CC[C@@H](NS(=O)(=O)c2cccc(F)c2)[C@@H](CO)O1)c1cnccn1,-2.0,-5.3,0.4
Cc1cccc(C)c1-n1nnnc1C(c1ccnc2ccccc12)N1CCN(C/C=C/c2ccccc2)CC1 (stereo unspecified),-2.5,-27.8,6.6
O=C(C[C@@H]1CC[C@H]2NC[C@@H](O)COC[C@@H]2O1)NCCc1ccncc1,2.0,4.8,0.6

# Single records (already shown).
# Record of `O=C(NCC[C@H]1CC[C@@H](NS(=O)(=O)c2cccc(F)c2)[C@@H](CO)O1)c1cnccn1` : rRNA inh HTS = -2.0; rRNA inh HTS OD600 = -5.3; rRNA inh HTS RFP = 0.4
# Record of `CC(C)N(C)c1ncnc2c1ncn2[C@H]1CN(Cc2cccs2)C[C@@H](CO)O1` : rRNA inh HTS = 3.6; rRNA inh HTS OD600 = 2.5; rRNA inh HTS RFP = 0.2

# Next records
SMILES,rRNA inh HTS,rRNA inh HTS OD600,rRNA inh HTS RFP
CC(C)NC(=O)N1C[C@H]2[C@@H](c3ccccc31)[C@H](CO)N2C(=O)Nc1ccc(F)cc1,4.1,7.5,2.1
C[C@@H]1CN([C@H](C)CO)C(=O)c2cccc(NC(=O)c3cnccn3)c2O[C@H]1CN(C)S(=O)(=O)c1ccccc1,-1.8,-10.6,-1.4
COc1cccc(CNC(=O)[C@H]2CCCN2C(=O)[C@H]2CCCN2C(=O)c2ccccc2)c1,5.1,-0.2,-0.9
C[C@H]1CN([C@@H](C)CO)C(=O)Cc2cc(N(C)C)ccc2O[C@H]1CN(C)Cc1ccc(C(=O)O)cc1,4.2,6.1,-2.7
COC(=O)[C@@]12C[C@@H](CC(=O)N3CCN(C(=O)c4ccco4)CC3)C(=O)N(Cc3ccccc3)C1=CCC(C)(C)C2,-5.2,-0.9,-1.3
Cc1ccc(S(=O)(=O)Nc2ccc3c(c2)C(=O)N([C@H](C)CO)C[C@@H](C)[C@H](CN(C)Cc2ccc(C(=O)O)cc2)OCCCC[C@@H](C)O3)cc1,0.5,1.9,-3.3
CN(C)CC(=O)N1CCCCN2[C@H](CO)[C@@H](c3ccc(-c4cccc(C(=O)N(C)C)c4)cc3)[C@@H]2C1,7.0,3.1,-3.8
C[C@@H]1CN([C@@H](C)CO)C(=O)c2cc(-c3ccc(F)cc3)cnc2O[C@H]1CN(C)C(=O)c1ccncc1,6.0,18.3,-6.6
CSc1ccccc1CNc1nc(NCC2CC2)nc2ccsc12,-62.3,-75.4,-17.0
C[C@@H]1CN([C@@H](C)CO)C(=O)c2cccc(NC(=O)Nc3cccc4ccccc34)c2O[C@H]1CN(C)S(=O)(=O)c1cn(C)cn1,2.3,1.3,-2.6
C[C@H](CO)N1C[C@H](C)[C@H](CN(C)Cc2ccc(-c3ccccc3)cc2)Oc2ccc(NC(=O)CCN3CCOCC3)cc2CC1=O,-1.6,-2.4,3.0
CC(=O)NCCNc1nc(NCc2cccs2)nc2ccsc12,-8.0,-3.8,3.3
N#C[C@H]1[C@H](c2ccccc2-c2ccccc2F)[C@@H](CO)N1C(=O)C1CC1,-3.9,-1.1,-4.7
CCCNC(=O)Nc1ccc2c(c1)OC[C@H](C)N(C(C)=O)C[C@H](C)[C@H](OC)CN(C)C2=O,-2.8,1.1,-3.9
C[C@@H]1CCCCO[C@H](CN(C)C(=O)Nc2ccccc2)[C@H](C)CN([C@H](C)CO)C(=O)c2cc(NC(=O)CCCN(C)C)ccc2O1,1.2,-5.0,-1.4
CCN(C[C@@H]1[C@@H](c2ccc(-c3cccnc3)cc2)[C@H](CO)N1C(C)=O)C(C)=O,-0.3,0.8,-1.3
COc1cccc(NC(=O)N(C)C[C@@H]2OCc3cnnn3CCCC(=O)N([C@@H](C)CO)C[C@H]2C)c1,0.2&-3.1,1.9&-8.8,-3.6&0.3
O=C(C[C@@H]1CC[C@@H](NS(=O)(=O)c2ccccc2)[C@H](CO)O1)NCc1ccccc1F,-0.9,-1.1,-0.8
CCCN1[C@@H]2c3ccc(-c4cccc(OC)c4)c(=O)n3C[C@@H]2[C@@H](CO)[C@@H]1C(=O)OC,-3.6,-6.2,-0.9
O=C(Nc1cc(F)ccc1F)N1CCCCN2[C@H](C1)[C@H](c1ccc(-c3cncnc3)cc1)[C@@H]2CO,1.7,11.2,-0.6
CO[C@@H]1CN(C)C(=O)c2ccc(NC(=O)C3CCCCC3)cc2OC[C@@H](C)N(C(=O)c2ccccc2)C[C@@H]1C,-3.1,-4.8,2.9
CCCNC(=O)N(C)C[C@H]1Oc2cc(C#CCN(C)C)ccc2S(=O)(=O)N([C@H](C)CO)C[C@@H]1C,4.1,2.8,2.6
O=C(NC[C@H]1[C@@H](c2ccccc2)[C@@H](CO)N1C(=O)Cc1cccnc1)C1CCC1,2.2,1.6,0.4
O=C(NCc1ccc(F)cc1)[C@H]1[C@H](CO)[C@H]2Cn3c(cccc3=O)[C@@H]1N2Cc1ccncc1,4.1,9.8,-0.4
C[C@H]1CN([C@@H](C)CO)C(=O)c2cccc(NC(=O)Nc3ccc4c(c3)OCO4)c2O[C@@H]1CN(C)Cc1ccccc1,-10.9,-24.5,-4.0
CC(C)CC#Cc1ccc2c(c1)O[C@@H](CN(C)C(=O)c1cccnc1)[C@H](C)CN([C@@H](C)CO)S2(=O)=O,0.2,-16.1,-1.9
COc1ccc(N2CCN(C(=O)c3ccc(CS(=O)c4cccc(Cl)c4)o3)CC2)cc1 (stereo unspecified),-17.1,-26.8,10.4
CCCC(=O)Nc1ccc2c(c1)C(=O)N(C)C[C@H](OC)[C@H](C)CN(CC1CCCC1)[C@@H](C)CO2,-1.1,2.9,0.7
CC(C)NC(=O)N(C)C[C@H]1OCCCC[C@H](C)Oc2ccc(NS(C)(=O)=O)cc2C(=O)N([C@H](C)CO)C[C@@H]1C,0.8,8.2,-2.0
OC(c1cccc(F)c1)c1ncc(-c2ccc(Oc3ccccc3)cc2)[nH]1 (stereo unspecified),-63.7,-78.5,-19.1
O=C(C[C@@H]1CC[C@H](NC(=O)C2CC2)[C@@H](CO)O1)NCc1ccccc1Cl,-0.1,-7.6,-1.5
CNC[C@H]1OCCCC[C@@H](C)Oc2ccc(NS(=O)(=O)c3ccc(OC)cc3)cc2C(=O)N([C@@H](C)CO)C[C@@H]1C,7.9,8.5,-0.6
COc1ccc(-c2cn(CC[C@H]3CC[C@@H](NC(=O)c4cnccn4)[C@H](CO)O3)nn2)cc1,-1.5,8.1,-1.9
CC(C)NC(=O)N(C)C[C@H]1Oc2ccc(NC(=O)CCN3CCOCC3)cc2CC(=O)N([C@H](C)CO)C[C@H]1C,4.1,1.1,-1.6
C[C@@H]1CCCCO[C@H](CN(C)CC2CCCCC2)[C@H](C)CN([C@H](C)CO)C(=O)c2cc(NC(=O)Cc3ccccc3)ccc2O1,2.4,-20.5,21.2
COCC(=O)N1CCCCN2[C@H](CO)[C@@H](c3ccc(-c4ccc(OC)cc4)cc3)[C@@H]2C1,2.3,9.9,-0.4
COCC#Cc1ccc2c(c1)O[C@H](CN(C)C(=O)C1CC1)[C@H](C)CN([C@@H](C)CO)S2(=O)=O,1.3,5.3,-2.0

# 4 compounds from above, sorted by length of the SMILES, lowest first.
SMILES,rRNA inh HTS,rRNA inh HTS OD600,rRNA inh HTS RFP
O=C(C[C@@H]1CC[C@H](NC(=O)C2CC2)[C@@H](CO)O1)NCc1ccccc1Cl,-0.1,-7.6,-1.5
O=C(NC[C@H]1[C@@H](c2ccccc2)[C@@H](CO)N1C(=O)Cc1cccnc1)C1CCC1,2.2,1.6,0.4
CCCNC(=O)N(C)C[C@H]1Oc2cc(C#CCN(C)C)ccc2S(=O)(=O)N([C@H](C)CO)C[C@@H]1C,4.1,2.8,2.6
CC(C)NC(=O)N(C)C[C@H]1OCCCC[C@H](C)Oc2ccc(NS(C)(=O)=O)cc2C(=O)N([C@H](C)CO)C[C@@H]1C,0.8,8.2,-2.0

# Assay outcomes as filed in PubChem BioAssay.
